Screens from PubChem BioAssay.
VACV Venus inh: vaccinia inhibition (Venus reporter); AID 720580; Potency, µM (titrated, usually from 36.5 µM), inactives show top-dose activity change, negative = inhibition, most hits filed as inhibitors; 330,000 compounds, 0.46% hits; Vaccinia virus Venus reporter expression, fluorescence; active means well fitted inhibition curve with a large enough effect; inconclusive means small, poorly fitted or top-dose-only effect; inactive means no such curve, though single readings can be large or run the other way; tested in A549 cells; also: nearly all actives have a fitted effect of over 30% in size; inactives centre near -10
VACV mCherry inh: vaccinia inhibition (mCherry reporter); Vaccinia virus mCherry reporter infection, fluorescence; about a quarter of the inactives have no number; Potency, µM (doses to about 36.5 µM), without a hit: at the highest dose activity change, negative = inhibition, hits mostly inhibitors; 310,000 compounds, 0.63% hits; AID 720579; active = well fitted inhibition curve with a large enough effect; inconclusive = small, poorly fitted or top-dose-only effect; inactive = no such curve, though single readings can be large or run the other way; tested in A549 cells; also: nearly all actives have a fitted effect of over 35% in size; inactives centre near -10
Active calls of the source: *; i = inactive; u = inconclusive; x = no result given; & = joins results of further samples; [ ] = remark or other dose. % is scaled to controls: 0 for no effect and ±100 for the full control effect; potency is read from the fitted curve at half-maximal effect.

A first look (four entries):
Screens in order – VACV Venus inh, VACV mCherry inh
- CCO[C@H]1OC(C(N)=O)=C[C@@H](C)[C@@H]1CCCO
 : -8.9%, i
- O=C(c1ccc(CS(=O)Cc2ccccc2Cl)o1)N1CCN(c2ccccn2)CC1 (stereo not given)
 : -14.1%, i
- OCCN(Cc1ccccc1)Cc1nc(CC2CC2)no1
 : 0.5%, -0.2%
- COc1ccc(CC(=O)Nc2ccc(F)c(S(=O)(=O)N3CCOCC3)c2)cc1
 : -5.7%, i

This part in full (from the top)
Screens in order – VACV Venus inh, VACV mCherry inh
- CCO[C@H]1OC(C(N)=O)=C[C@@H](C)[C@@H]1CCCO
 : -8.9%, i
- O=C(c1ccc(CS(=O)Cc2ccccc2Cl)o1)N1CCN(c2ccccn2)CC1 (stereo not given)
 : -14.1%, i
- OCCN(Cc1ccccc1)Cc1nc(CC2CC2)no1
 : 0.5%, -0.2%
- COc1ccc(CC(=O)Nc2ccc(F)c(S(=O)(=O)N3CCOCC3)c2)cc1
 : -5.7%, i
- O=C(CCc1nnc(Cc2cccc(C(F)(F)F)c2)o1)NCC(F)(F)F
 : -9.8%, i
- COc1ccc(C(O)P(=O)(OCCC(C)C)c2ccc(N(C)C)cc2)cc1OC (stereo not given)
 : -5.4%, i
- CCOC(=O)c1sc2c(c1C)c(=O)n(Cc1ccccc1)c(=O)n2CCN(C)C
 : -17.9%, i
- O=C1NC(=O)C(=Cc2ccc(Cl)c(Cl)c2)S1
 : -2.9%, -14.8%
- O=C(N/N=C/c1cc(Cl)ccc1O)c1cccnc1
 : u, u
- NC(=O)C1=C[C@@H](c2ccc(Br)cc2)C[C@@H](OCc2ccc(CO)cc2)O1
 : -23.5%, u
- O=C(Nc1ccc(Cl)c(Cl)c1)OCCNC(=O)c1cccc(Cl)c1
 : -8.1%, -17.2%
- Cc1ccc2[nH]nc(C(=O)N3CCOc4ccc(CN5CCc6sccc6C5)cc4C3)c2c1
 : -19.9%, 12.6µM*
- COc1ccc(NC(=O)CCc2nnc3n(Cc4ccc(C)cc4)c(=O)c4ccccc4n23)cc1
 : -10.6%, -14.0%
- CNS(=O)(=O)c1cn(CC(=O)N2CCN(c3cc(C)ccc3C)CC2)cc1S(=O)(=O)NC
 : -9.2%, -1.4%
- CC(NC(=O)c1cccc(S(=O)(=O)N2CCN(C)CC2)c1)c1ccc(Cl)cc1Cl (stereo not given)
 : -28.7%, -16.8%
- Cc1cc(=O)n(Cc2ccccc2)c(O)c1C#N
 : -8.0%, -22.5%
- COCCCNC(=S)NNC(=O)c1ccccc1Br
 : -13.0%, i
- CCOc1ccccc1NC(=O)c1oc2ccccc2c1NC(=O)C1CC1
 : -13.3%, -14.5%
- O=C(Nc1nccs1)c1cc(Cl)nc2ccccc12
 : -23.9%, u
- COc1cc(/C=C(\C#N)C(=O)Nc2cc(C(F)(F)F)ccc2Cl)ccc1OCC(=O)Nc1cccc(C(F)(F)F)c1
 : -19.7%, i
- O=C(CN(Cc1ccco1)C(=O)CNS(=O)(=O)c1ccc(Cl)cc1)NC1CCCCC1
 : -11.8%, x
- COC(=O)c1c(C(C)=O)cnc2ccc(Br)cc12
 : -17.8%, x
- COc1cc(CNc2ccc3[nH]c(=O)[nH]c3c2)ccc1OCc1cccc(C)c1
 : u, u
- COc1ccc(S(=O)(=O)N2CCOC2CNC(=O)C(=O)NCCN(C)C)cc1 (stereo not given)
 : -10.2%, -1.1%
- CNC(=S)N(Cc1ccc(OC)cc1)Cc1cc2ccc(C)cc2[nH]c1=O
 : -17.6%, 4.9%
- COc1cccc(-n2cc(CNCc3cn(C)nc3-c3ccccc3F)cn2)c1
 : -15.4%, u
- COc1ccc(CNC(=O)CCNC(=O)N2CCn3c2nc2ccccc23)cc1
 : -21.5%, -4.9%
- COc1cc(C(=O)Nc2nc3nc(-c4ccccc4)cc(=O)n3[nH]2)cc(OC)c1OC
 : -9.2%, 4.0%
- CCOc1ccc(CCNC(=O)c2cc3c(-c4ccccc4F)nn(C)c3s2)cc1
 : 1.2%, -5.6%
- CCCn1c(N)c(C(=O)CSc2nc(C)nc3sc(C)c(C)c23)c(=O)[nH]c1=O
 : -8.1%, -15.2%
- O=[N+]([O-])c1ccccc1S(=O)(=O)Nc1ccc(S(=O)(=O)N2CCOCC2)cc1
 : -4.6%, -10.7%
- Cc1nccn1CCC(=O)NC1CCCc2c1cnn2-c1ccc(C(C)(C)C)cc1 (stereo not given)
 : -28.3%, i
- Cc1ccccc1OCC(=O)Nc1cccc(Cl)c1C
 : -9.2%, -17.0%
- CCN(CC)Cc1cc(C(=O)O)c(C)o1
 : -3.2%, -9.3%
- Cc1ccc(OCCn2cc(C(=O)O)c3ccccc32)cc1
 : -2.2%, -11.1%
- Cc1ccc(C(=O)OCc2cc(=O)n3nc(-c4cccs4)sc3n2)cc1
 : -2.9%, -7.6%
- O=C(Cn1c(CCCO)nc2ccccc21)Nc1ccccc1-c1ccccc1
 : -4.3%, i
- CN(C)c1ccc(/C=C2\SC(=O)N(CC(O)Cn3c4ccccc4c4ccccc43)C2=O)cc1 (stereo not given)
 : 1.8%, -15.9%
- CC1=C(C(=O)OC2CCCCCCC2)C(c2ccc(O)cc2)NC(=O)N1 (stereo not given)
 : -19.4%, -23.0%
- CC(OCC(O)CN1CCN(S(=O)(=O)c2ccc(Cl)cc2)CC1)c1ccc(Cl)cc1 (stereo not given)
 : u, i
- O=C(CSc1ccc(-c2cccnc2)nn1)Nc1ccc(Br)cc1
 : u, u
- C/C(=N\OC(=O)Nc1ccc(Cl)cc1)c1ncc(C(F)(F)F)cc1N1CCOCC1
 : -15.9%, -5.5%
- O=C(COC(=O)c1cccs1)Nc1ccc(S(=O)(=O)N2CCOCC2)cc1
 : -15.3%, -23.0%
- Cc1cc(C)cc(OCC(=O)O/N=C(\N)Cc2ccc([N+](=O)[O-])cc2)c1
 : -6.6%[7.34 µM], -1.2%[7.34 µM]
- CCOc1ccc(NC(=O)CSc2nnc(C)n2CC2CCCO2)cc1 (stereo not given)
 : -23.4%, -6.4%
- COc1ccc(OC)c(NC(=O)Cn2c(=O)oc3cc(S(=O)(=O)NCc4ccccc4)ccc32)c1
 : -2.6%, -10.1%
- CC(=O)Nc1ccc(-n2c(=O)c3ccccc3c3ccccc3c2=O)cc1
 : -15.4%, -7.8%
- O=C(CCc1ccccc1)NNC(=O)COc1ccccc1Cl
 : -5.2%, -23.3%
- CCc1ccccc1NC(=O)c1ccc2c(c1)CCCN2S(C)(=O)=O
 : -6.1%, -9.7%
- CC1CCN(c2c(NCC3CCC(C(=O)NCCCc4ccccc4)CC3)c(=O)c2=O)CC1 (stereo not given)
 : -7.2%, -14.9%
- O=C(CN1CCS(=O)(=O)CC1)N/N=C/c1cccc(C(F)(F)F)c1
 : -16.7%, i
- Cc1ccc(NC(=O)C2Cc3ccccc3C(=O)O2)cc1 (stereo not given)
 : -0.6%, 2.0%
- COc1ccc(CNC(=O)Cn2nc(C)c3c(C)n(-c4ccccc4)nc3c2=O)cc1OC
 : -14.3%, -8.8%
- CC(C)(C)OC(=O)N1CCC(CC2CC(c3ccccc3)=NO2)(C(=O)O)CC1 (stereo not given)
 : -13.6%, i
- O=C(O)c1ccc(N/N=C/c2ccc(F)c(F)c2)cc1
 : 3.6%, -14.3%
- Cc1nn(-c2ccccc2)c(C)c1NC(=O)COc1ccc(F)cc1Cl
 : -29.7%, u
- CCOc1ccc(S(=O)(=O)n2nc(C)c(S(=O)(=O)N3CCCCCC3)c2C)cc1
 : -6.0%, 2.7%
- O=C(O)/C=C/C(=O)Nc1cccc(C(F)(F)F)c1
 : -24.8%, i
- C=CCN(Cc1ccc(OC)c(OC)c1)C(=O)N1CCOCC1
 : -9.5%, -5.2%
- Cc1ccc(S(=O)(=O)N2C3CC(c4ccccc4)N(S(=O)(=O)c4ccccc4Cl)CC3C(=O)C[C@H]2c2ccccc2)cc1 (stereo not given in full)
 : -4.4%, -14.9%

A second format for some results above.
O=C(O)/C=C/C(=O)Nc1cccc(C(F)(F)F)c1
  VACV Venus inh: -24.8%; VACV mCherry inh: i

C=CCN(Cc1ccc(OC)c(OC)c1)C(=O)N1CCOCC1
  VACV Venus inh: -9.5%; VACV mCherry inh: -5.2%

Cc1ccc(S(=O)(=O)N2C3CC(c4ccccc4)N(S(=O)(=O)c4ccccc4Cl)CC3C(=O)C[C@H]2c2ccccc2)cc1 (stereo not given in full)
  VACV Venus inh: -4.4%; VACV mCherry inh: -14.9%

Next records follow:
Screens in order – VACV Venus inh, VACV mCherry inh
- O=C(Cn1cnc2c(oc3nc4c(cc32)CCCC4)c1=O)Nc1cccc(Cl)c1
 : -14.4%, -10.9%
- COCCNC(=O)CCCn1c(=O)c2cc(OC)c(OC)cc2n(CC(=O)c2ccccc2)c1=O
 : 10.9%, -24.5%
- Cc1ccccc1N(C)S(=O)(=O)c1nnc(NC(=O)c2ccco2)s1
 : 3.7%, -4.9%
- COC(=O)C(NC(=S)N1CC2C[C@@H](C1)Cn1c2cccc1=O)C(C)C (stereo not given in full)
 : -6.1%, i
- Cc1[nH]c(=O)[nH]c(=O)c1S(=O)(=O)N1CCCC(C(=O)N2CCN(c3ccccc3Cl)CC2)C1 (stereo not given)
 : -13.1%, x
- CN(Cc1ccccc1)c1nc2c(c(=O)n(C)c(=O)n2C)n1CCCc1ccccc1
 : -16.9%, -14.6%
- C[C@H](CO)N1C[C@H](C)[C@@H](CN(C)Cc2ccc(C(=O)O)cc2)Oc2c(NS(=O)(=O)c3ccc(F)cc3)cccc2C1=O
 : -6.9%, -25.5%
- CC(NC(=O)CN(C)Cc1cccs1)c1ccccc1 (stereo not given)
 : -8.6%, i
- O=C(NC1CCCCC1)C1CCCN1S(=O)(=O)c1ccc(Cl)cc1 (stereo not given)
 : -4.2%, -12.3%
- CN(C)c1ccc(CC(=O)N2CCCC(c3cc(C(=O)Nc4ccc5c(c4)OCO5)no3)C2)cc1 (stereo not given)
 : -10.3%, 2.9%
- O=c1[nH]c(=O)n(C2CCCCC2)c(O)c1C=Nc1ccc(N2CCOCC2)cc1
 : -9.7%, -14.9%
- COc1ccc(-n2c(COc3cccc(C)c3)nnc2SCC(=O)O)cc1
 : -6.6%, -1.2%
- C[C@H](O)[C@@H]1C(=O)N2CCc3ccc(-c4ccccc4)cc3[C@@H]2C[C@@H]1N(C)C(=O)c1ccc(C#N)cc1
 : -10.2%, -9.2%
- O=C(O)c1cc2n(n1)C(C(F)(F)F)CC(C1CC1)N2 (stereo not given)
 : 4.7%, -10.5%
- O=C(NCCCc1ccccc1)C1CCC(=O)N(CCc2ccc(Cl)cc2)C1 (stereo not given)
 : -15.5%, u
- CCOc1ccc(S(=O)(=O)N(CC(N)=O)c2ccc(C)cc2)cc1
 : -5.4%, -9.5%
- OCCN1CCN(c2ncnc3c2ncn3[C@H]2CN(Cc3ccco3)C[C@@H](CO)O2)CC1
 : -4.6%, 14.1%
- CC[C@@H]1C(=O)[C@H](Cc2ccccc2)[C@H]2CCCC(=O)N3CC[C@@H]1[C@@H]23
 : -8.1%&-14.5%, -13.0%
- CCOc1ccc(-c2cn(-c3ccccc3OC)c(=S)[nH]2)cc1
 : -18.1%, -27.7%
- COC(=O)c1ccc[n+](CC(=O)Nc2ccc(OC(F)F)cc2)c1
 : -5.7%, -15.6%
- CC(=O)NC(C)(c1ccccc1)c1nc(-c2cc(F)cc(F)c2)cs1 (stereo not given)
 : -8.1%, i
- O=C(COC(=O)c1cccs1)Nc1cccc(S(=O)(=O)N2CCOCC2)c1
 : -26.5%, i
- COc1cccc(-c2c(C(=O)N/N=C(\C)COc3ccccc3)nnn2-c2nonc2N)c1
 : 0.0%[7.34 µM], -2.0%[7.34 µM]
- COc1ccc(S(=O)(=O)NCC(=O)N(CC(=O)NCC2CCCO2)Cc2ccc(F)cc2)cc1 (stereo not given)
 : -13.5%, i
- Cc1cc(Cl)ccc1OC(C)C(=O)Nc1ccc(S(=O)(=O)Nc2cnc3ccccc3n2)cc1 (stereo not given)
 : -15.6%, i
- COCCN1Cc2cccc(C(=O)Nc3ccc(C(=O)OC)cc3)c2C1=O
 : 2.2%, -6.0%
- Cc1cc(C)c(C#N)c(OCc2ccc(Cl)nc2)n1
 : -29.0%, -5.9%
- CC1CCN(C(=O)C(Cc2ccccc2)n2cccc2)CC1 (stereo not given)
 : 3.7%, 28.3%
- CN1CCN(C(=S)Nc2cccc(C(F)(F)F)c2)CC1
 : -12.6%, -4.8%
- O=C(O)CCC(=O)NNC(=O)COc1ccc(Cl)cc1Cl
 : -13.7%, -15.0%
- COc1cc(NCCCCCCCN)c2ncccc2c1
 : -9.9%, i
- Cn1c(O)c(C(=Nc2ccc(F)cc2)c2ccccc2Cl)c(=O)n(C)c1=O
 : -9.0%, -9.8%
- COc1ccc(NC2=C(C(C)=O)C(c3ccc4c(c3)OCO4)C(C(C)=O)C(C)(O)C2)cc1 (stereo not given)
 : -10.1%, -14.2%
- Cc1ccc(C)c(N(C)C(=O)c2cc3c(s2)-c2ccccc2OC3)c1
 : -1.5%, 4.0%
- O=C(C1CCN(S(=O)(=O)c2ccc(F)cc2)CC1)N1CCOCC1
 : -3.0%, -11.4%
- COc1cccc(-n2c(SCC(=O)Nc3nc4ccccc4s3)nc3ccccc3c2=O)c1
 : -8.3%, -7.4%
- O=C(CNC(=O)c1ccc(-c2ccccc2)cc1)OCc1c(Cl)cccc1Cl
 : -1.7%, -6.4%
- Cc1cc(C)cc(CC2CC(=O)N(c3nc(C)cc(C)n3)C2=O)c1 (stereo not given)
 : -12.2%, i
- CC(C)COCC1CC2(CC(C)C(=O)CC2=O)C(=O)O1 (stereo not given)
 : -1.9%, x
- COc1cccc(CNC(=O)c2c(C)nn(-c3ccccc3)c2C)c1
 : -7.9%, i
- Cc1ccc(N)c2c1OCCC2=O
 : -6.2%, -0.1%
